High-throughput results (PubChem BioAssay)
Calb FLC = affects C. albicans growth with fluconazole; C. albicans CaCi-2 (fluconazole-resistant clinical isolate) + fluconazole, Alamar Blue growth, 48 h; growth inhibition, % (concentration not given with the values); actives 0.57% (n = 300,000);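 active = most replicates above 75%; inconclusive = exactly half above 75%; inactive = most below 75%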;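 note: all wells also contain fluconazole at 8 µg/ml as a sub-toxic cotreatment; 0% = median of DMSO wells and 100% = median of geldanamycin control wells; wells of about 8 µL received 7.5 nL stock; the first replicate is given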
Vif TR-FRET = inhibitors of Vif binding to APOBEC3G peptide, primary screen, biochemical, TR-FRET, GST-Vif 1-94, biotin-A3G peptide, dose response retest (AID 1117319). TR-FRET GST-Vif / biotin-A3G peptide binding; higher % means a stronger effect; test concentration not given here; strong numbers were not always called active. one-dose inhibition, %; IC50 in µM for titrated hits. actives 0.57% (n = 260,000);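 active = above the screen mean plus three standard deviations and confirmed in dose response; inconclusive = results disagree or hit not tested in dose response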;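 note: Vif residues 1-94 fused to GST binding biotinylated APOBEC3G peptide 110-148; 0% = full assay without inhibitor and 100% = GST in place of GST-Vif; retest series ran down from 100 µM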
T cruzi repl = T. cruzi replication inhibition; T. cruzi beta-gal in NIH3T3, luminescence, 90 h; inhibition, % (no concentration beside the values); actives 1.4% (n = 300,000);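 active = mean inhibition across valid replicates above about 55%, limit read from the data; inconclusive = mean below that limit but half or more replicates reach it; inactive = mean below it, under half of replicates reach it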;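 note: signal also drops with host cell toxicity which is not excluded here; 0% = plate median of DMSO wells and 100% = zero luminescence signal; higher percent means less beta-gal luminescence so fewer parasites; stock transfer was 50 nL into about 50 µL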
Beta apoptosis = beta cell apoptosis inhibition; INS-1E cytokine-induced death, ATP luminescence, 48 h; percent of positive-control rescue, neutral wells zero; protection from apoptosis, % (no concentration beside the values); actives 0.8% (n = 300,000); AID 435005;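 active = all replicates at 75% or more, or half of them and the mean; inconclusive = half reach 75% but not the mean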;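 note: 0% = cytokine-treated negative control wells and 100% = positive control rescue; higher means more ATP so stronger rescue from cytokine killing; wells of about 40 µL received 100 nL stock; the first replicate is given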
rRNA inh HTS = selective bacterial rRNA inhibition in E. coli; E. coli WT GFP vs humanized-ribosome RFP mutants, fluorescence, 24 h; active compounds read low; DMSO median 0, no signal -100; GFP signal change (wild-type ribosome), % (concentration not given with the values); actives 1.6% (n = 350,000);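 active = significant combined selectivity score with lowered wild-type GFP, culture density cut under 30%, mutant RFP and density less affected; inactive = any of these conditions unmet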; note: one replicate is shown; some compounds called inactive have numbers as strong as hits
A1 inh = inhibitors of the anti-apoptotic protein A1, read as caspase activation | MEF A1-2A-BIM cells, Caspase-Glo 3/7 luminescence, 3 h; percent of clofoctol response, vehicle zero | caspase activation, % (no concentration beside the values) | actives 0.066% (n = 330,000) | AID 2462;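 active = over half of replicate activation scores above 10%, or exactly half above 10 with the replicate mean above 10; inconclusive = replicate mean below 10 yet half the replicates above 10; inactive = over half of replicates below 10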;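 note: wells of about 30 µL received 50 nL stock; many hits fall short of the cut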
AF4-AF9 inh = blocks AF4 peptide binding to human AF9; P42568; AlphaScreen, biotin-AF4 peptide binding to FLAG-AF9; inhibition, % at 10 µM; actives 0.47% (n = 350,000); AID 651704;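 active = every replicate reaching a set inhibition limit, whatever the replicate mean, cut at about 25% in these data; inconclusive = mean inhibition reaches that limit but some replicates miss it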;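 note: 0% = plate neutral control median and 100% = total signal loss; the record names both 10 and 1 µM as test concentration; the first replicate is given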
Target sequence (P42568 whole entry, looked up): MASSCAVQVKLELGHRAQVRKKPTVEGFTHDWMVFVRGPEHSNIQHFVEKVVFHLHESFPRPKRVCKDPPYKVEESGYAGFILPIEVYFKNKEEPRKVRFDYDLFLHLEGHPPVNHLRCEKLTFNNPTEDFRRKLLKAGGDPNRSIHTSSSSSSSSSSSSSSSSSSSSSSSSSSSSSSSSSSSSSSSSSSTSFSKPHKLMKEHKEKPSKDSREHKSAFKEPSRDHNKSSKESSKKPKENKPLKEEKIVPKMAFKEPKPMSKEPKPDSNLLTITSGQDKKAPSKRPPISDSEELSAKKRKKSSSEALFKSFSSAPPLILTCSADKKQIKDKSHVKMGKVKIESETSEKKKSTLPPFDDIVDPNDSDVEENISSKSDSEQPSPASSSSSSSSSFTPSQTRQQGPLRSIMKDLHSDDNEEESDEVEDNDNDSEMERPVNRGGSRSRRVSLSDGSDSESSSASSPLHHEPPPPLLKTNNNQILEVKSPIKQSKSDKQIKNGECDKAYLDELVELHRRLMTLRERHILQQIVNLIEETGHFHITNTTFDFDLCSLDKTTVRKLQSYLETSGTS
RanGTP-Impb inh = disruptors of Ran-importin-beta complex formation – biochemical, FRET, CFP-Ran, YFP-importin-beta, homogeneous, primary screen. cell-free CFP-Ran/YFP-importin-beta FRET ratio. inhibition, % (no concentration beside the values). actives 1.1% (n = 300,000);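 active = most replicates above 15%; inconclusive = exactly half above 15%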;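 note: 0% = DMSO wells and 100% = Ran loaded with GDP instead of GTP; wells of about 40 µL received 100 nL stock; the first replicate is given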
rRNA inh HTS OD600 = also measured in rRNA inh HTS; calls as there; OD600 change, %; measured here: OD600 growth;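 optical density of the mix in the first replicate; 0 = DMSO median and -100 = no signal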
rRNA inh HTS RFP = further read-out of rRNA inh HTS, marked with its call; RFP signal change, %; measured here: RFP humanized mutant strains;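 first replicate; 0 = DMSO median and -100 = no signal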
An asterisk follows results filed as active; ? = inconclusive; . = no result given; & = joins results of further samples. The list is partial (hit frequency here may not be typical).

1. COc1ccc(NC(=O)CCNS(=O)(=O)c2ccc3c(c2)c(=O)n(C)c(=O)n3C)cc1
2. O=C(COC(=O)c1ccc(O)cc1O)NCCN1C(=O)CSC1=O
3. Cc1c(-c2ccccc2)oc2c(C(=O)OCC(=O)Nc3ccc(F)cc3)cccc2c1=O
4. CCSc1nc(N)c(C#N)c(-c2ccccc2Cl)c1C#N
5. COc1ccc(CN2CC(C(=O)NCCCN3CCCC(C)C3)CC2=O)cc1 (stereo not given)
6. COc1ccc(C(=O)N/C(=C\c2cn(C)c3ccccc23)C(=O)NCCCN2CCOCC2)cc1
7. CCc1nnc(SCC(=O)NC2CCCC2)nc1CC
8. O=C(OCc1ccccc1)c1ccc2c(c1)-c1ccccc1C2=O

Assay by compound	1	2	3	4	5	6	7	8
Calb FLC	-6	6	5	-3	0	-1	-9	1
Vif TR-FRET	17%	2%	.	-7%	.	-4%	22%	-2%
T cruzi repl	2	-2	13	2	-3	17	-22	-10
Beta apoptosis	5	-7	-5	4	0	0	-7	0
rRNA inh HTS	.	4	10	.	11	2	.	.
rRNA inh HTS OD600	.	-2	-1	.	-2	7	.	.
rRNA inh HTS RFP	.	-4.6	-1.3	.	0.7	-3.6	.	.
A1 inh	0.5	0.5	0.6	1.4	1.2	0.1	-0.6	-2.9
AF4-AF9 inh	.	-15	-0.5	.	-0.8	2.0	.	.
RanGTP-Impb inh	5.8	0.5	-2.0	-0.7	2.4	1.1	4.7	0.3

9. NC(=O)COc1cccc(/C=N/NC(=O)c2ccc(-n3cccc3)cc2)c1
10. CC1CC(C)CN(CCCNC(=O)C2CCN(c3ncnc4c3sc3cccc(F)c34)CC2)C1 (stereo not given)
11. CCC(C)NC(=O)c1cc(Cl)c(NC(=O)C2=C(C)OCCS2)cc1OC (stereo not given)
12. CC1CN(CC(O)COCc2ccc3c(c2)OCO3)CC(C)O1 (stereo not given)
13. CCc1noc(C)c1C(=O)Nc1cccc(S(=O)(=O)N2CCCCCC2)c1
14. COc1ccc(C(=O)NC(=S)N2CCCC2)cc1
15. Cc1ccc(OCc2nnc(NC(=O)OCC(C)C)s2)cc1
16. N#Cc1nc(-c2cccc(Cl)c2)oc1NCc1cccnc1

Assay by compound	9	10	11	12	13	14	15	16
Calb FLC	-2	0	0	-11	-4	-3	20	17
Vif TR-FRET	.	-4%	-6%	-7%	-1%	.	-6%	10%
T cruzi repl	-2	47	4	4	0	-5	2	51
Beta apoptosis	4	5	-4	3	.	4	-3	4
rRNA inh HTS	12	.	-1	8	-11	1	13	.
rRNA inh HTS OD600	4	.	2	5	-16	10	8	.
rRNA inh HTS RFP	3.3	.	-1.0	0.6	2.3	32	-0.5	.
A1 inh	0.6	0.5	0.7	0.1	0.4	0.2	1.0	0.4
AF4-AF9 inh	3.7	.	5.0	-2.7	-1.4	0.1	.	.
RanGTP-Impb inh	5.1	-5.7	0.7	-2.2	7.8	6.0	3.4	4.0

17. COc1ccc(-c2[nH]ncc2CN2CCC(O)(c3ccc(Cl)cc3)CC2)cc1
18. C/C(=N\Nc1nc(-c2cc(C)ccc2C)cs1)c1cc2c(ccc3ccccc32)oc1=O
19. COc1cc(OC)c2c(C)cc(=O)oc2c1C(CCN1CCN(c2ccccc2)CC1)c1ccc2c(c1)OCO2 (stereo not given)
20. O=C(COC(=O)c1nc(Cl)ccc1Cl)Nc1ccc(Cl)cn1
21. CCOC(=O)c1c(C)[nH]c(C)c1C(=O)COC(=O)c1cc2ccccc2cc1OC
22. CCC(C)[C@H](NC(=O)NCCCn1ccnc1)C(=O)OC (stereo not given in full)
23. O=C(C1=NN[C@@H]2C(=O)N(Cc3ccccc3)C(=O)[C@H]12)c1ccc(F)cc1
24. COc1ccc(OCC2NCCc3cc(OC)c(OC)cc32)cc1 (stereo not given)

Assay by compound	17	18	19	20	21	22	23	24
Calb FLC	-18	2	-29	.	-4	-7	1	-8
Vif TR-FRET	?	-1%	.	8%	-9%	17%	-12%	.
T cruzi repl	.	-30	32	.	27	-11	-7	2
Beta apoptosis	-4	-2	6	3	-9	-3	.	-6
rRNA inh HTS	1	.	1	0	.	3	-7	13
rRNA inh HTS OD600	-7	.	-4	2	.	4	-5	19
rRNA inh HTS RFP	3.8	.	14	1.6	.	-6.3	0.0	6.2
A1 inh	0.1	-0.1	0.5	2.2	1.2	-0.2	?	-0.4
AF4-AF9 inh	8.5	-1.4	17	0.0	.	-2.0	5.7	-0.3
RanGTP-Impb inh	-2.0	64*	3.0	.	-2.7	1.7	-5.5	12

25. COc1ccc(C(=O)NC(=S)Nc2ccc(Cc3ccncc3)cc2)cc1
26. OCCC1CN(Cc2ccc(Oc3ncccn3)cc2)CCN1CCc1ccccc1 (stereo not given)
27. COc1ccc(C2(O)CCN(Cc3nnnn3Cc3ccc(C)cc3)CC2)cc1
28. CC(C(=O)N1CCCCC1)N1C(=O)c2ccccc2C1=O (stereo not given)
29. NS(=O)(=O)c1ccc(NC(=O)COC(=O)Cn2cnc3ccccc3c2=O)cc1
30. Cc1ccc(S(=O)(=O)Nc2cc3c4c(c2)C(C)C(=O)N4CCC3)cc1 (stereo not given)
31. CN1CCN(c2ccncc2S(=O)(=O)N2CCCCC2)CC1
32. CCOc1ccc(NS(=O)(=O)c2ccc3[nH]cc(C(=O)NCC4CCCO4)c(=O)c3c2)cc1 (stereo not given)

Assay by compound	25	26	27	28	29	30	31	32
Calb FLC	4	-15	-14	1	.	6	-17	-3
Vif TR-FRET	?	5%	0%	5%	1%	5%	-6%	-6%&16%
T cruzi repl	21	8	29	1	.	-4	-9	-7
Beta apoptosis	1	-1	.	-6	3	1	.	0
rRNA inh HTS	5	6	-19	.	3	-6	26	.
rRNA inh HTS OD600	-9	8	-18	.	13	-5	10	.
rRNA inh HTS RFP	-2.5	3.3	5.2	.	7.9	1.5	1.2	.
A1 inh	0.8	-0.6	-0.6	-0.4	0.1	-0.2	-0.6	-0.4
AF4-AF9 inh	-7.2	0.0	1.8	.	-1.6	-0.4	-0.5	.
RanGTP-Impb inh	-1.5	0.3	3.1	5.5	.	1.5	1.8	-3.5

The closing four compounds of the part above lead into the next.
29. NS(=O)(=O)c1ccc(NC(=O)COC(=O)Cn2cnc3ccccc3c2=O)cc1
30. Cc1ccc(S(=O)(=O)Nc2cc3c4c(c2)C(C)C(=O)N4CCC3)cc1 (stereo not given)
31. CN1CCN(c2ccncc2S(=O)(=O)N2CCCCC2)CC1
32. CCOc1ccc(NS(=O)(=O)c2ccc3[nH]cc(C(=O)NCC4CCCO4)c(=O)c3c2)cc1 (stereo not given)
33. CC(=O)c1c(C)[nH]c(C(=O)N2c3ccccc3CC2C)c1C (stereo not given)
34. CCN(CC)S(=O)(=O)c1cccc(NC(=O)CCNC(=O)c2ccc([N+](=O)[O-])cc2)c1
35. O=S(=O)(c1ccc(Cl)cc1)N1CCc2ccccc21
36. Cc1cccc(C(=O)NCC(=O)NC2CCN(Cc3ccccc3)CC2)c1
37. O=C(N/N=C/c1cccc(OCc2ccccc2)c1)c1ccc(Br)cc1
38. FC(F)(F)c1nnc2c(Sc3ccc(Cl)cc3)nc3ccccc3n12
39. O=C1NC(=O)/C(=C/c2ccccc2Oc2ccc(Cl)cc2)S1
40. C=CCN=C1NN=C(c2ccc3c(c2)OCCO3)CS1

Assay by compound	29	30	31	32	33	34	35	36	37	38	39	40
Calb FLC	.	6	-17	-3	-1	3	5	3	31	-12	79*	-13
Vif TR-FRET	1%	5%	-6%	-6%&16%	0%	.	30%	-2%	6%	-5%	8%	-4%
T cruzi repl	.	-4	-9	-7	-11	-6	13	26	-9	46	-3	18
Beta apoptosis	3	1	.	0	1	-1	-1	-2	8	3	6	7
rRNA inh HTS	3	-6	26	.	-16	14	-32	12	5	.	.	-9
rRNA inh HTS OD600	13	-5	10	.	-19	7	-37	17	11	.	.	-9
rRNA inh HTS RFP	7.9	1.5	1.2	.	-3.2	-3.6	-2.7	1.6	-4.4	.	.	-4.0
A1 inh	0.1	-0.2	-0.6	-0.4	0.5	-0.8	1.4	0.5	-1.1	0.0	-1.1	0.8
AF4-AF9 inh	-1.6	-0.4	-0.5	.	-1.5	1.7	-2.0	-1.5	1.4	.	.	-0.7
RanGTP-Impb inh	.	1.5	1.8	-3.5	3.6	-0.2	?	4.9	2.8	0.4	0.1	5.1

41. COCC(=O)NC(c1ccccc1)c1ccccc1
42. Cc1nc2c(C(=O)NCc3ccccc3)c[nH]n2c(=O)c1Cl
43. CCOc1ccc(C(=O)CCC(=O)N2CCN(c3ccc(O)cc3)CC2)cc1
44. C/C(=N\NS(=O)(=O)c1ccc([N+](=O)[O-])cc1)c1cccs1
45. CCN(CC)c1nc(-c2ccccc2)nc2ccccc12
46. COc1ccc(S(=O)(=O)N2CCOCC2)cc1NC(=O)Cc1ccsc1
47. CCNC(=O)Cn1cc(C#N)c2ccccc21
48. CCC1(c2ccc(F)cc2)NC(=O)N(CC(=O)NCc2ccc(C)cc2)C1=O (stereo not given)

Assay by compound	41	42	43	44	45	46	47	48
Calb FLC	3	4	.	46	-21	.	-2	2
Vif TR-FRET	0%	14%	.	-1%	-5%	7%	4%	-8%
T cruzi repl	4	-8	.	-6	16	.	-10	-7
Beta apoptosis	.	-4	10	-2	4	-2	-2	2
rRNA inh HTS	.	.	-10	6	-45	21	.	-9
rRNA inh HTS OD600	.	.	-11	19	-62	16	.	2
rRNA inh HTS RFP	.	.	-0.7	-2.6	-9.2	7.5	.	0.9
A1 inh	0.8	-0.2	2.5	0.7	0.6	0.4	0.4	-0.5
AF4-AF9 inh	.	.	1.2	0.0	-6.7	-49	.	-1.7
RanGTP-Impb inh	2.4	2.6	.	-1.2	1.4	.	?	0.1

49. C=CCn1c(Cc2c[nH]c3ccccc23)nnc1SCC(=O)NCc1ccccc1
50. Cc1ccc(C)c(S(=O)(=O)N2CCN(C(=O)[C@@H]3CCCN3C(=O)c3cccs3)CC2)c1
51. Cc1cc(C)nc(NS(=O)(=O)c2ccc(NC(=O)Cc3ccccc3F)cc2)n1
52. COC(C[C@@H](O)C[C@@H](O)COCc1ccccc1)OC
53. Nc1nc(SCC(=O)N2CCN(c3ccc(F)cc3)CC2)n[nH]1

Assay by compound	49	50	51	52	53
Calb FLC	?	.	3	-9	.
Vif TR-FRET	-3%	-17%	.	1%	4%
T cruzi repl	11	.	-11	-7	.
Beta apoptosis	-2	-5	.	.	-1
rRNA inh HTS	.	19	4	6	14
rRNA inh HTS OD600	.	7	14	-7	14
rRNA inh HTS RFP	.	12	-0.8	-5.9	2.0
A1 inh	0.9	0.6	-2.6	.	2.2
AF4-AF9 inh	.	-1.0	-0.5	2.9	1.8
RanGTP-Impb inh	0.6	.	0.4	0.7	.
